Screens (PubChem BioAssay)
HCMV NEC inh: inhibitors of HCMV UL50-UL53 interaction, biochemical, HTRF. AID 1918969, 2023. normalized percent inhibition. 190,000 compounds, 0.15% hits. inhibition, % (test concentration not listed);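 active = both replicates at 50% or more, plus weaker picks with an unusually low signal ratio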;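 note: stock transfer was 100 nL into about 20 µL; 0% = negative control wells and 100% = wells with untagged competitor protein; inactives centre near -12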
Sa growth inh: S. aureus growth inhibition at 42 and 30 °C, primary screen, LtaS inhibitor project, RN4220, two temperatures. 170,000 compounds, 0.53% hits. relative growth, % (test concentration not listed). OD600, 20 h, 42 °C; active compounds read low;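 active = growth at 42 °C up to 50% and 20 or more points under that at 30 °C, or under 10% at both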;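 note: 300 nL library stock went into each well; scaled to the means of positive and negative controls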
GIV-Gai inh: inhibitors of GIV peptide binding to Galpha-i3, primary screen, biochemical, fluorescence polarization, FITC-GIV GBA peptide, rat Galphai3 | 210,000 compounds, 0.42% hits | percent of control (FP), % (no concentration beside the values) | AID 1224905, 2016 | Guanine nucleotide-binding protein G(i) subunit alpha-3 (Rattus norvegicus), P08753 | 90 min; active compounds read low; scaled: aluminum fluoride 0%, vehicle 100%;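 active = replicate mean at 85% of control or lower, very high polarization wells dropped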;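 note: wells of about 15 µL received 100 nL stock; the first replicate is given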
Target sequence (P08753 whole entry, looked up): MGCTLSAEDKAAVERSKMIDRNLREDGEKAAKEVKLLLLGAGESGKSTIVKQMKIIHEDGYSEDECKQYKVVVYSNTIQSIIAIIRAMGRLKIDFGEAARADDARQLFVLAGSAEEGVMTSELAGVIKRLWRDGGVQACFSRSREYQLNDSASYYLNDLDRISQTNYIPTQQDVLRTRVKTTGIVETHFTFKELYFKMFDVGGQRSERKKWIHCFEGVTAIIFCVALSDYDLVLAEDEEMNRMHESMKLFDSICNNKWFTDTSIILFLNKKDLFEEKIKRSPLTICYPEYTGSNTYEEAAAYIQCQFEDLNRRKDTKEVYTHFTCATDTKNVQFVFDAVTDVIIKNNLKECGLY
Sa growth inh second temp: further read-out of Sa growth inh, marked with its call; relative growth, %; measured here: growth at 30 °C;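 optical density after 20 h as mean of two plates; 100% = untreated growth and lower means inhibition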
An asterisk follows results filed as active; nt = not tested or not shown; & = joins results of further samples.

No.	mol	HCMV NEC inh	Sa growth inh	Sa growth inh second temp	GIV-Gai inh
1	COc1ccc(OC)c(C(C)NC(=O)COc2cc(C)c3c(C)nn(-c4ccc(C)cc4)c3n2)c1 (stereo unspecified)	-5.5	nt	nt	103.7
2	O=C(CCS(=O)(=O)Cc1ccccc1)Nc1ccc2c(c1)OCCO2	-5.7	91.0	99.6	105.9
3	CC1=NN(c2nc(-c3ccccc3)cs2)C(=O)/C1=C/c1cccs1	-15.2	92.1	92.0	101.2
4	O=C(O)CCC(=O)c1cccnc1	-8.8	91.3	87.1	106.1
5	O=C(Nc1ccccc1)C1CCN(C(=O)/C=C/c2cn(Cc3ccccc3)nn2)CC1	-25.4	89.9	82.9	nt
6	CCCCc1nn2c(=O)cc(COC(=O)c3ccc(NC(=O)CCc4ccccc4)cc3)nc2s1	nt	84.0	92.5	95.5
7	CC(C)(C)C(=O)OCc1nc(-c2ccc3c(c2)OCCO3)cs1	-4.9	99.4	91.1	96.6
8	COc1ccc2nc(NC(=O)CN(c3ccc(C)cc3)S(=O)(=O)c3c(C)noc3C)sc2c1	nt	125.9	74.4	104.2
9	Cc1ccc2c(c1)N(S(=O)(=O)c1cc3[nH]c(=O)c(=O)[nH]c3cc1C)CCO2	-11.0	111.1	85.5	98.3
10	COCCNC(=O)Cn1ncc2c(C)n(Cc3ccc(C)cc3)c(C)c2c1=O	-8.0	99.8	90.5	106.0
11	Cc1cc(NC(=O)c2sc3ccccc3c2Cl)cc(-c2nc3ncccc3o2)c1O	-24.8	nt	nt	105.4
12	COc1cc2c(cc1OC)C(C(=O)NCCN(C)C)C(c1cccs1)N(C)C2=O (stereo unspecified)	nt	94.9	91.5	102.3
13	O=C(Nc1ccccc1C(F)(F)F)N1CCN(c2ccc3nnc(-c4ccc(F)cc4)n3n2)CC1	-18.7	103.3	75.3	98.4
14	Cc1ccc(NC(=O)CSc2nc(-c3ccc4c(c3)OCO4)cn2-c2cccc(Cl)c2)cc1C	nt	100.4	60.6	121.5
15	FC(F)(F)c1ccc(-c2noc(Cc3ccccc3)n2)cc1	-1.2	99.8	89.6	104.2

(continued)
No.	mol	HCMV NEC inh	Sa growth inh	Sa growth inh second temp	GIV-Gai inh
16	CCOc1ccc(-c2cn3c(n2)sc2cc(C(=O)N4CCCC(C)C4)ccc23)cc1 (stereo unspecified)	1.4	108.0	85.5	96.2
17	Cc1ccc(S(=O)(=O)N2CN(c3ccccc3)c3nc4ccccc4nc32)cc1	-19.3	92.4	91.2	nt
18	CCNC(=O)c1ncoc1-c1ccc(C)cc1	-0.9	110.0	97.9	108.8
19	CCCn1c(=O)c2ccc(C(=O)NC(C)C)cc2n2c(=O)n(C(C)C(=O)c3ccc(C)c(C)c3)nc12 (stereo unspecified)	-12.1	nt	nt	102.2
20	O=C(CCc1nc2ccccc2[nH]c1=O)OCc1cccc(Cl)c1	-22.0	95.3	85.0	98.2
21	Nc1ccc2nc(CCc3ccccc3)[nH]c2c1	-36.6	112.7	85.7	104.9
22	COc1ccccc1CNC(=O)CCC1N=C2c3ccccc3N=C(SCC(=O)NCCc3ccc(OC)c(OC)c3)N2C1=O (stereo unspecified)	nt	75.3	89.5	101.6
23	CCOC(=S)NC(=O)c1ccccc1	-36.4	85.7	68.9	nt
24	O=C(CSc1ccc2ccccc2c1)Nc1ncccn1	7.2	91.3	105.9	nt
25	N#CC(C#N)=C(NC12CC3CC(CC(C3)C1)C2)C(F)(F)F	-12.2	82.3	51.3	nt
26	O=c1ccc(-c2ccc(Cl)c(S(=O)(=O)NC3CCCC3)c2)n[nH]1	-73.9	nt	nt	100.2
27	COc1cc2c(=O)n(Cc3ccccc3Cl)c(=O)n(CC(=O)N3CC(C)CC(C)C3)c2cc1OC (stereo unspecified)	nt	111.9	89.4	106.7
28	Cc1csc2nc(COC(=O)c3cccc(NC(=O)c4cccc(Cl)c4)c3)cc(=O)n12	nt	80.3	88.3	100.2
29	Cc1cc(C)cc(C(=O)N2CCN=C2c2ccccc2)c1	-4.7	97.8	87.5	107.9
30	O=C(NCC1CCCO1)c1ccc2c(c1)S(=O)(=O)c1ccccc1C2=O (stereo unspecified)	-183.5	83.2	59.6	nt

(more compounds)
No.	mol	HCMV NEC inh	Sa growth inh	Sa growth inh second temp	GIV-Gai inh
31	CCC(C)NC(=O)C1CCN(S(=O)(=O)c2c(C)[nH]c(C)c2C(=O)N2CCCCC2)CC1 (stereo unspecified)	0.7	nt	nt	107.2
32	CCN(CC)c1ccc(N=c2ccc3ccccc3n2C)cc1	nt	74.8	101.1	100.3
33	CCN(CC)S(=O)(=O)c1cc(C(=O)N2CCN(c3ccccn3)CC2)ccc1N1CCCC1	6.4	nt	nt	107.3
34	CC(C)(C)c1cc(C(=O)CN2CCCCC2)cc(C(C)(C)C)c1O	-20.3	84.6	43.3	104.1
35	Cc1nc(NC(=O)CN2CCN(Cc3ccc(F)cc3)CC2)sc1C(=O)N(C)C	-20.6	105.2	103.9	93.8
36	O=C1CC(Sc2ccc3ccccc3c2)C2COC1O2 (stereo unspecified)	-8.6	70.5	65.0	nt
37	c1ccc(-c2nnc(-c3ccccc3OCc3cn4ccccc4n3)o2)cc1	-35.9	nt	nt	106.6
38	CSc1c(CC(=O)Nc2ccccc2)n(Cc2ccccc2)c2ccccc12	-11.6	94.1	87.3	nt
39	CCOC(=O)c1sc2nc(N3CCCCC3)c3c(c2c1N)CC(C)(C)OC3	nt	93.6	88.2	106.9
40	Cc1ccc(Cn2c(/N=C/c3ccc(N(C)C)cc3)nc3ccccc32)cc1	nt	76.5	90.5	306.2
41	O=S(=O)(Nc1ccc(N2CCN(Cc3ccccc3)CC2)cc1)c1ccccc1	-3.4	89.1	90.7	102.1
42	CCNC(=O)NC1CCN(c2cc(C)nc3ncnn23)CC1	-4.5&-11.7	94.2	97.3	100.6&100.1
43	Cc1cc(C)nc(-n2nc(C)c3c2NC(=O)CC3c2sccc2C)n1 (stereo unspecified)	-8.6	nt	nt	107.8
44	C=Cc1c(SC)sc(C(N)=O)c1C	-6.9	106.3	86.6	106.1
45	CCCN1CCN(CCNC(=O)Nc2cc(OC)cc(OC)c2)CC1	-33.9	93.5	84.5	98.7

3 compounds drawn at random from those above:
No.	mol	HCMV NEC inh	Sa growth inh	Sa growth inh second temp	GIV-Gai inh
45	CCCN1CCN(CCNC(=O)Nc2cc(OC)cc(OC)c2)CC1	-33.9	93.5	84.5	98.7
37	c1ccc(-c2nnc(-c3ccccc3OCc3cn4ccccc4n3)o2)cc1	-35.9	nt	nt	106.6
38	CSc1c(CC(=O)Nc2ccccc2)n(Cc2ccccc2)c2ccccc12	-11.6	94.1	87.3	nt

(more compounds)
No.	mol	HCMV NEC inh	Sa growth inh	Sa growth inh second temp	GIV-Gai inh
46	Cc1cc(Oc2ncccc2C(=O)O)cc(C)c1Cl	-5.9	102.5	91.0	100.3
47	COc1cc(/C=c2/sc3nc4cc(C)c(C)cc4n3c2=O)cc(Br)c1OCC(=O)O	-25.6	nt	nt	110.4
48	Cc1ccc(S(=O)(=O)N[C@@H](Cc2ccccc2)C(=O)CCl)cc1	4.8&-4.1	nt	nt	98.3
49	CC(C)Cn1nc(C(N)=O)c2ccccc2c1=O	-12.4	99.2	88.5	nt
50	COc1ccc(N2CCN(C(=O)Cc3c(C(=O)O)c(C)cn3C)CC2)cc1	nt	83.7	88.5	95.4
51	Fc1ccc(COc2ccc(-c3nnco3)cc2)cc1	-0.1	103.3	90.2	97.7
52	CC1c2ccsc2CCN1S(C)(=O)=O (stereo unspecified)	-6.6	105.3	89.0	100.6
53	CCN(CC)C(=O)c1cccc(NC(=O)Cc2coc3cc(C)ccc23)c1	7.9	100.8	89.0	nt
54	O=c1cc(CCl)c2c(ccc3ccccc32)o1	-38.2	123.2	82.9	nt
55	CC(C)NC(=O)C1CCN(C(=O)c2ccc(Cl)cc2)CC1	-5.9	101.7	92.3	104.5
56	CCC(=O)Nc1ccc(C2=NNC(=NCCN3CCOCC3)SC2)cc1	-15.6	103.2	98.6	nt
57	CC(=O)NC(C(=O)NC1CC1)C(C)C (stereo unspecified)	-16.3	112.2	94.8	nt
58	CCN1CCN(c2cc(C)c3cc(NC(=O)COc4ccc(Cl)cc4)ccc3n2)CC1	nt	106.9	70.5	96.3
59	CCOc1ccc(C(=O)N(Cc2ccc(N(C)C)cc2)CC2CCCO2)cc1 (stereo unspecified)	-23.0	83.8	81.0	100.2
60	COc1cccc(-c2nc(CS(=O)(=O)CC(=O)Nc3ccc(C)c(Cl)c3)c(C)o2)c1	13.9	95.2	107.3	107.2

61. N#Cc1c(=O)c2ccccc2n2ccccc12
62. CCOc1ccc(NC(=O)NCCN2C(C)CCCC2C)cc1 (stereo unspecified)
63. CCCn1c(N)c(C(=O)CN(C)CC(=O)Nc2ccc(Cl)cc2)c(=O)[nH]c1=O
64. c1c(SSc2cn3c(n2)CCC3)nc2n1CCC2
65. CCC(Sc1ncccc1C(=O)O)C(=O)Nc1cccc(Cl)c1 (stereo unspecified)
66. Cc1ccc(C)c(OCCCC(C)(C)C(=O)O)c1
67. O=C(NC(Nc1ncccn1)C(=O)c1ccccc1)c1ccccc1 (stereo unspecified)
68. COc1cccc(OC)c1OC
Compound | 61 | 62 | 63 | 64 | 65 | 66 | 67 | 68
HCMV NEC inh | -78.9 | nt | -7.5 | -14.2 | 6.8 | -29.9&-16.8&6.0&-13.8&-31.7 | -12.7 | 8.4
Sa growth inh | 91.0 | 95.2 | 99.2 | -0.6* | 91.8 | 92.2&95.5 | 70.5 | 100.2
Sa growth inh second temp | 89.2 | 92.8 | 94.2 | -0.2* | 86.9 | 95.0&89.5 | 100.9 | 81.8
GIV-Gai inh | 102.5 | 102.7 | nt | 99.9 | 105.8 | 104.4 | 108.9 | 97.6

69. Cc1ccnc(N2CCC(C(=O)NCCC(C)C)CC2)n1
70. COc1cccc(C(=O)O/N=C(\N)c2ccncc2)c1OC
71. COCCNC(=O)NCc1cc(C)n(-c2cccc(Cl)c2)c1C
72. CCOC(=O)c1nn(-c2ccccc2)c(=O)c(C#N)c1C
73. CC(=O)Nc1cc(C(=O)N2CCC(c3nc(-c4ccccc4)no3)CC2)ccc1C
74. Cc1cc(N2CCC(C(O)(c3ccccc3)c3ccccc3)CC2)nc(C)n1
75. CC(CO)(CO)NS(=O)(=O)c1ccccc1
76. COc1cccc(C2C(C(=O)OC(C)C)=C(C)NC3=C2C(=O)CC(c2ccc(Cl)cc2)C3)c1OC (stereo unspecified)
Compound | 69 | 70 | 71 | 72 | 73 | 74 | 75 | 76
HCMV NEC inh | -3.2 | -4.8 | -12.0 | -120.1 | -2.3 | 2.6 | -5.1 | -2.0
Sa growth inh | 144.4 | 108.3 | nt | 83.8 | nt | 90.5 | 76.4 | nt
Sa growth inh second temp | 91.3 | 90.6 | nt | 88.2 | nt | 82.1 | 108.1 | nt
GIV-Gai inh | 103.5 | 107.0 | 97.7 | 95.4 | 101.1 | 100.7 | nt | 102.5

77. O=S(=O)(Cc1ccc(Cl)cc1)Nc1nc2ccccc2s1
78. C=CCn1c(N)c(C(=O)OCC)c2nc3ccccc3nc21
79. CC(=O)c1ccc(NC(=O)CC2Nc3cc(C)c(C)cc3NC2=O)cc1 (stereo unspecified)
80. CCc1ccc(NC(=O)Nc2c[nH]c(=O)[nH]c2=O)cc1
81. O=C(Cn1cnc2nc3c(cc2c1=O)CCCC3)NC1CCCc2ccccc21 (stereo unspecified)
82. CCOC(=O)c1c(NC(=O)Cn2cnc3sccc3c2=O)sc(C)c1CC
83. COc1ccc(/C=C2/C(=O)N(Cc3ccccc3)N=C2C)cc1
84. Cc1cc(N2CCCCC2)nc2ccc(NC(=O)/C=C/c3ccco3)cc12
85. C/C(=C\C(=O)c1cccnc1)Nc1ccccc1O
86. CCN1CCC(N(Cc2ccc3c(c2)OCO3)C(=O)Nc2cccc(C)c2C)CC1
Compound | 77 | 78 | 79 | 80 | 81 | 82 | 83 | 84 | 85 | 86
HCMV NEC inh | -8.6 | -21.5 | -28.6 | -5.3 | -14.5 | -4.6 | -6.9 | -43.5 | -41.3 | nt
Sa growth inh | 112.3 | 87.8 | 92.9 | nt | nt | 85.7 | 95.6 | 79.0 | 64.8 | 100.7
Sa growth inh second temp | 88.3 | 83.8 | 88.8 | nt | nt | 95.8 | 100.3 | 52.9 | 36.6 | 100.4
GIV-Gai inh | 105.6 | nt | 114.6 | 97.7 | 104.9 | nt | nt | 100.4 | 113.7 | 107.2

Record cards, from the list above:
CCN(CC)S(=O)(=O)c1cc(C(=O)N2CCN(c3ccccn3)CC2)ccc1N1CCCC1 is entered as HCMV NEC inh = 6.4; Sa growth inh = nt; Sa growth inh second temp = nt; GIV-Gai inh = 107.3
Cc1cc(NC(=O)c2sc3ccccc3c2Cl)cc(-c2nc3ncccc3o2)c1O is entered as HCMV NEC inh = -24.8; Sa growth inh = nt; Sa growth inh second temp = nt; GIV-Gai inh = 105.4
